Screening data: PubChem, Broad Institute
PD-1 reverse act: reversal of PD-1 mediated T-cell inhibition; primary human CD4 T cells, PD-L1 beads, CellTiter-Glo 96 h; activation, % (no concentration beside the values); 29,000 tested, under 10 active;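 active = replicate mean of 50% or more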;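 note: 0% = median vehicle wells and 100% = positive control; 100 nL library stock added to about 50 µL; numbers are from one replicate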
YB-1 expression: YB-1 expression inhibition; U2OS, qRT-PCR YB-1 vs CDIP delta delta Cp, 16 h; stronger effect = higher value; zero = DMSO, each unit about twofold; delta delta Cp (YB-1 minus CDIP) (concentration not given with the values); hit rate 0.37% among 30,000;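 active = delta delta Cp rounded down to an integer at or above 3, about 3 SD of DMSO wells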;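 note: higher means less YB-1 transcript or more CDIP transcript relative to DMSO; stock transfer was 100 nL into about 100 µL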
MITF inh: blocks MITF activity. TRPM1 promoter luciferase, luminescence, 24 h. inhibition, % (concentration not given with the values). hit rate 0.28% among 37,000. AID 2240;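 active = most replicates at 85% or more, or half of them and the mean; inconclusive = half reach 85% but not the mean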;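 note: human melanocyte line stably carrying TRPM1 promoter luciferase reporter; 0% = vehicle wells and 100% = a positive control; the first replicate is given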
Hedgehog inh: blocks Sonic Hedgehog signaling. AID 2313. inhibition, % (no concentration beside the values). Shh-LIGHT2 Gli-luciferase reporter, 30 h. hit rate 2.1% among 22,000;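 active = replicate mean of 65% or more; inconclusive = mean lower but half the replicates past it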;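 note: pathway switched on by Shh-conditioned medium diluted 1 in 25 in low serum; 100 nL library stock added to about 40 µL; 0% = median of neutral wells and 100% = positive control level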
An asterisk follows results filed as active; ? = inconclusive; / = not tested or not shown. The list is partial; rates above refer to the full screens.

SMILES	PD-1 reverse act	YB-1 expression	MITF inh	Hedgehog inh
CCc1ccc(N=Cc2c(O)n(-c3ccccc3)c(=O)c3ccccc23)cc1	0.1	-0.49	-16	-6
CC(C)C(NS(=O)(=O)c1c(Cl)cccc1Cl)C(=O)O (stereo not given)	1.8	/	-11	/
Cc1noc(C)c1NC(=O)Nc1ccc2c(c1)CC(=O)N([C@@H](C)CO)C[C@H](C)[C@H](CN(C)Cc1ccc(Cl)c(Cl)c1)O2	-0.3	0.59	-36	22
C[C@H]1CN([C@@H](C)CO)C(=O)Cc2cc(NC(=O)NC3CCCCC3)ccc2O[C@H]1CN(C)S(=O)(=O)c1cn(C)cn1	3.9	0.17	-13	-50
CCN(CC(=O)Nc1ccc(I)cc1)S(=O)(=O)c1ccc2ccccc2c1	0.8	/	3	/
COC(=O)c1cc(OC)c(OC)cc1NC(=O)C(C)Oc1cccc(Cl)c1 (stereo not given)	-0.3	/	23	/
COc1ccc(Cl)cc1N(CC(=O)Nc1ccc(Br)c(Cl)c1)S(C)(=O)=O	0.8	/	14	/
Cc1ccc(S(=O)(=O)N(C)C[C@H]2Oc3ccc(NS(=O)(=O)c4cn(C)cn4)cc3C(=O)N([C@H](C)CO)C[C@H]2C)cc1	1.4	0.29	10	/
CCN(CC(=O)Nc1cccc(F)c1)S(=O)(=O)c1ccc(C)cc1	0.1	/	3	/
Cc1ccc2c(c1)c(=O)c(C(=O)O)cn2C	0.2	-0.14	-6	8
COC1CC(=O)C23C(=O)NC(CC(C)C)C2C(C)C(C)=CC3/C=C(\C)CCC(O)C1O (stereo not given)	-5.6	1.7	-4	-12
COc1ccc(-n2c(SCC(N)=O)nc3c(c2=O)C2(CCCCC2)Cc2ccccc2-3)cc1	-2.7	/	41	/
Cc1noc(C)c1NC(=O)N(C)C[C@H]1Oc2c(NC(=O)c3nc4ccccc4s3)cccc2C(=O)N([C@@H](C)CO)C[C@H]1C	0.1	1.1	5	12
COc1ccc(/C=C2\Oc3cc(O)cc(O)c3C2=O)cc1O	0.4	0.075	-54	-8
C[C@@H]1CN([C@@H](C)CO)C(=O)c2cccc(NC(=O)c3nc4ccccc4s3)c2O[C@@H]1CN(C)Cc1ccncc1	-2.5	0.078	3	12

Rewritten as labelled records: part of the list above.
Cc1noc(C)c1NC(=O)Nc1ccc2c(c1)CC(=O)N([C@@H](C)CO)C[C@H](C)[C@H](CN(C)Cc1ccc(Cl)c(Cl)c1)O2
- PD-1 reverse act: -0.3
- YB-1 expression: 0.59
- MITF inh: -36
- Hedgehog inh: 22

C[C@H]1CN([C@@H](C)CO)C(=O)Cc2cc(NC(=O)NC3CCCCC3)ccc2O[C@H]1CN(C)S(=O)(=O)c1cn(C)cn1
- PD-1 reverse act: 3.9
- YB-1 expression: 0.17
- MITF inh: -13
- Hedgehog inh: -50

CCN(CC(=O)Nc1ccc(I)cc1)S(=O)(=O)c1ccc2ccccc2c1
- PD-1 reverse act: 0.8
- YB-1 expression: /
- MITF inh: 3
- Hedgehog inh: /

Later entries
SMILES	PD-1 reverse act	YB-1 expression	MITF inh	Hedgehog inh
C[C@@H]1CN([C@H](C)CO)C(=O)c2cc(NC(=O)NC3CCCCC3)ccc2O[C@H]1CN(C)Cc1ccccc1	-0.2	-0.0061	-3	10
CCC(c1ccc(O)cc1)C(CC)c1ccc(O)cc1 (stereo not given)	/	-0.32	42	-30
C[C@@H]1CN([C@H](C)CO)C(=O)c2cc(NS(=O)(=O)c3ccc(F)cc3)ccc2O[C@H]1CN(C)C	-0.5	0.15	-7	/
CCn1ncc(Cl)c1C(=O)NCc1ccco1	-1.3	/	-22	/
CC1=CCC(C(C)(C)O[C@@H]2O[C@H](C)[C@@H](O)[C@H](O)[C@H]2O)CC1 (stereo not given in full)	/	1.1	/	-18
C[C@H]1CN([C@@H](C)CO)C(=O)c2cccc(NS(=O)(=O)c3cn(C)cn3)c2O[C@@H]1CN(C)S(=O)(=O)c1ccc(Cl)cc1	3.0	-0.2	-18	-8
Cc1ccc(S(=O)(=O)Nc2ccc3c(c2)C(=O)N([C@@H](C)CO)C[C@@H](C)[C@H](CN(C)Cc2ccc(C(=O)O)cc2)O3)cc1	/	-0.036	-9	-23
COc1ccc(S(=O)(=O)N(C)CC(=O)O)cc1Cl	1.5	/	-9	/
C[C@@H]1CN([C@H](C)CO)C(=O)Cc2cc(NS(=O)(=O)c3cn(C)cn3)ccc2O[C@@H]1CN(C)S(=O)(=O)c1ccc(F)cc1	1.3	-0.18	-5	-31
C[C@H](CO)N1C[C@H](C)[C@@H](CN(C)S(=O)(=O)c2ccccc2)Oc2ccc(NC(=O)CCN3CCOCC3)cc2C1=O	0.3	0.28	-4	-13
C[C@H]1CN([C@@H](C)CO)C(=O)c2cc(NC(=O)CCCCCC(=O)Nc3ccccc3N)ccc2O[C@@H]1CN(C)C(=O)NC1CCCCC1	1.3	-0.014	-1	/
C[C@@]12C[C@]3(O)O[C@H](O1)[C@]1(COC(=O)c4ccccc4)[C@H]3C[C@@]12O[C@@H]1O[C@H](CO)[C@@H](O)[C@H](O)[C@H]1O	-0.3	-0.44	0	-14
COc1ccc(CC(=O)NCc2n[nH]c(=S)n2C)cc1	0.9	/	-20	/
CC(C)NC(=O)N(C)C[C@@H]1Oc2ccc(NS(=O)(=O)c3ccc(Cl)cc3)cc2CC(=O)N([C@H](C)CO)C[C@H]1C	0.7	0.18	-16	-42
Cc1ccc(S(=O)(=O)Nc2ccc3c(c2)CC(=O)N([C@H](C)CO)C[C@@H](C)[C@@H](CN(C)S(=O)(=O)c2ccc(C)cc2)O3)cc1	-1.0	0.22	-11	16
c1ccc(-c2nnc3n2N=C(c2cccs2)CS3)cc1	-1.0	0.45	-16	50
O=C(Cn1cncc1-c1ccc([N+](=O)[O-])cc1)Nc1ccccc1F	-4.3	/	34	/
COC(=O)Oc1cc2oc(=O)sc2cc1Cl	-3.3	0.44	7	6
Cc1noc(C)c1S(=O)(=O)Nc1ccc2c(c1)CC(=O)N([C@@H](C)CO)C[C@@H](C)[C@@H](CN(C)Cc1ccc(Oc3ccccc3)cc1)O2	-2.1	-0.12	4	8
Cc1ccc(S(=O)(=O)N(C)C[C@@H]2Oc3ccc(NS(C)(=O)=O)cc3C(=O)N([C@@H](C)CO)C[C@H]2C)cc1	-1.6	-0.15	4	9
Cc1ccc(S(=O)(=O)N(C)C[C@@H]2Oc3ccc(NS(=O)(=O)c4ccccc4)cc3C(=O)N([C@H](C)CO)C[C@H]2C)cc1	-2.0	0.12	-8	/
Cc1ccc(S(=O)(=O)N(C)C[C@H]2Oc3ccc(NS(=O)(=O)c4c(C)noc4C)cc3C(=O)N([C@H](C)CO)C[C@H]2C)cc1	-2.2	0.038	-3	/
COc1ccc(OC)c(NC(=O)CSc2n[nH]c(-c3ccncc3)n2)c1	-0.8	/	2	/
C[C@@H]1CN([C@H](C)CO)C(=O)Cc2cc(NC(=O)Cn3cnnn3)ccc2O[C@@H]1CN(C)S(=O)(=O)c1ccc(Cl)cc1	/	-0.0054	-1	-10
COc1ccc(NC(=O)N(C)C[C@H]2Oc3c(NC(=O)Nc4ccc(C(F)(F)F)cc4)cccc3C(=O)N([C@H](C)CO)C[C@H]2C)cc1	-0.7	0.15	3	-35
Cc1noc(C)c1NC(=O)Nc1cccc2c1O[C@@H](CN(C)C(=O)Nc1ccc(C(F)(F)F)cc1)[C@H](C)CN([C@@H](C)CO)C2=O	0.4	-0.11	1	-21
O=C(Oc1ccc(Cl)cc1Cl)c1cccnc1SCCS(=O)(=O)c1ccccc1	-0.8	-0.31	-18	33
C[C@@H]1CN([C@@H](C)CO)C(=O)c2cc(NC(=O)Cc3cn(C)c4ccccc34)ccc2O[C@H]1CN(C)S(C)(=O)=O	/	0.17	5	/
CSC1=C(C#N)C(=O)NC(c2ccc(Cl)cc2)S1 (stereo not given)	-4.4	0.16	6	0
CN1C2CC[C@@H]1CC(OC(=O)[C@H](CO)c1ccccc1)C2 (stereo not given in full)	/	0.26	-4	-37

Full records as entered above:
Cc1noc(C)c1NC(=O)Nc1cccc2c1O[C@@H](CN(C)C(=O)Nc1ccc(C(F)(F)F)cc1)[C@H](C)CN([C@@H](C)CO)C2=O as listed: PD-1 reverse act = 0.4; YB-1 expression = -0.11; MITF inh = 1; Hedgehog inh = -21
COc1ccc(NC(=O)N(C)C[C@H]2Oc3c(NC(=O)Nc4ccc(C(F)(F)F)cc4)cccc3C(=O)N([C@H](C)CO)C[C@H]2C)cc1 as listed: PD-1 reverse act = -0.7; YB-1 expression = 0.15; MITF inh = 3; Hedgehog inh = -35

(more compounds)
SMILES	PD-1 reverse act	YB-1 expression	MITF inh	Hedgehog inh
COc1ccc(S(=O)(=O)N(C)C[C@H]2Oc3ccc(NC(=O)CCC(F)(F)F)cc3CC(=O)N([C@H](C)CO)C[C@H]2C)cc1	-0.5	0.48	14	9
O=C(CCn1nc(-c2ccc(Cl)cc2)c2ccccc2c1=O)Nc1ccccc1	-5.0	/	6	/
CNC[C@@H]1Oc2ccc(N(C)C)cc2CC(=O)N([C@@H](C)CO)C[C@@H]1C	/	0.18	2	48
COc1ccc(NC(=O)N(C)C[C@@H]2Oc3c(NC(=O)c4ccncc4)cccc3C(=O)N([C@@H](C)CO)C[C@H]2C)cc1	1.7	-0.078	-11	?
C[C@@H]1CN([C@H](C)CO)C(=O)Cc2cc(NS(=O)(=O)c3ccc(Cl)cc3)ccc2O[C@H]1CN(C)C(=O)NC1CCCCC1	-0.4	0.041	-10	48
COc1ccc(Cl)cc1NC(=O)CN(C)S(=O)(=O)c1ccc2ccccc2c1	0.8	/	8	/
O=C(CCc1nc(-c2ccccc2F)no1)NC1CCCCC1	1.2	/	-10	/
C[C@@H]1CN([C@@H](C)CO)C(=O)c2cc(NC(=O)CCC(F)(F)F)ccc2O[C@H]1CN(C)C(=O)Nc1ccc(F)cc1	-1.6	-0.23	-6	-2
Cn1c(SCc2nc(-c3cccs3)no2)nnc1-c1ccco1	0.8	/	15	/
C[C@H]1CN([C@@H](C)CO)C(=O)c2cccc(NS(=O)(=O)c3ccccc3)c2O[C@H]1CN(C)S(=O)(=O)c1cn(C)cn1	1.3	-0.46	3	-15
Cc1noc(C)c1S(=O)(=O)Nc1ccc2c(c1)C(=O)N([C@H](C)CO)C[C@@H](C)[C@@H](CN(C)C(=O)NC1CCCCC1)O2	-0.4	0.28	9	-35
CCOC(=O)c1c(NC(=O)c2ccc(Cn3cc(Cl)cn3)o2)sc2c1CCCCC2	-2.3	/	26	/
Cc1noc(C)c1NC(=O)N(C)C[C@H]1Oc2c(NS(=O)(=O)c3cn(C)cn3)cccc2C(=O)N([C@H](C)CO)C[C@@H]1C	3.0	0.043	-8	?
CCn1c(SCC(=O)Nc2ccc(F)c(F)c2)nnc1-c1ccncc1	1.3	/	3	/
Cc1ccc(S(=O)(=O)N(C)C[C@@H]2Oc3ccc(NS(=O)(=O)c4c(C)noc4C)cc3C(=O)N([C@H](C)CO)C[C@H]2C)cc1	-1.5	-0.013	-4	/
Cc1c(NC(=O)CN(c2ccc(F)c(Cl)c2)S(C)(=O)=O)cccc1[N+](=O)[O-]	0.0	/	0	/
C[C@@H]1CN([C@@H](C)CO)C(=O)c2cccc(NC(=O)C3CC3)c2O[C@@H]1CN(C)C(=O)Nc1cccc2ccccc12	-0.7	-0.33	-1	-14
O=C(CC1(O)C(=O)N(Cc2ccc(Cl)c(Cl)c2)c2ccccc21)c1cccc([N+](=O)[O-])c1 (stereo not given)	-5.5	/	5	/
C[C@H](CO)N1C[C@H](C)[C@@H](CN(C)C)Oc2ccc(NS(C)(=O)=O)cc2C1=O	/	-0.17	-2	-11
COc1ccc(NC(=O)Nc2ccc3c(c2)C(=O)N([C@H](C)CO)C[C@H](C)[C@H](CN(C)S(=O)(=O)c2ccc(F)cc2)OCCCC[C@@H](C)O3)cc1	-3.0	0.0048	13	25
Cc1noc(C)c1S(=O)(=O)N(C)C[C@H]1Oc2ccc(NS(=O)(=O)c3ccccc3)cc2CC(=O)N([C@H](C)CO)C[C@H]1C	0.5	0.6	-13	-9
C[C@@H]1CN([C@H](C)CO)C(=O)c2cc(NC(=O)Nc3ccccc3)ccc2O[C@@H]1CN(C)CC1CCCCC1	0.9	0.16	-4	/
COc1ccc(S(=O)(=O)Nc2ccc3c(c2)C(=O)N([C@@H](C)CO)C[C@H](C)[C@@H](CN(C)S(=O)(=O)c2ccc(C)cc2)O3)cc1	1.1	-0.027	5	/
C[C@H]1CN([C@@H](C)CO)C(=O)c2cccc(NC(=O)C3CCCCC3)c2O[C@H]1CN(C)S(C)(=O)=O	4.7	-0.061	-15	13
COc1ccc(CN(C)C[C@H]2Oc3ccc(NC(=O)C4CCCCC4)cc3C(=O)N([C@@H](C)CO)C[C@H]2C)cc1	-1.0	-0.4	-4	18
COc1ccc(CN(C)C[C@H]2Oc3ccc(NS(=O)(=O)c4cn(C)cn4)cc3C(=O)N([C@@H](C)CO)C[C@H]2C)cc1	1.2	0.24	-1	-2
COc1ccc(NC(=O)N(C)C[C@@H]2Oc3ccc(NC(=O)Nc4cccc5ccccc45)cc3C(=O)N([C@H](C)CO)C[C@@H]2C)cc1	-4.3	-0.2	-3	36
C[C@@H]1CN([C@H](C)CO)C(=O)c2cc(NC(=O)C3CCCCC3)ccc2O[C@@H]1CN(C)Cc1ccc(-c2ccccc2)cc1	/	-0.035	-17	-14
